Bioassay records as filed in PubChem BioAssay.
Vaccinia stage – blocks a specific stage of Vaccinia orthopoxvirus infection, primary screen, cell-based, single point | Vaccinia-infected cells, mCherry/Venus stage reporter fluorescence; stronger effect = lower value; some inactives read as strong as hits | activity change (mCherry), % (no concentration beside the values) | 89,000 tested, 0.01% active;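 active = mCherry past -33% and 40 or more points under the early reporter, replicates agreeing; inconclusive = past -33% without that gap or agreement; tested in A549 cells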;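 note: scaled between vehicle wells and reference inhibitor wells; 23 nL library stock went into each well; one replicate is shown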
Vaccinia stage Venus – further read-out of Vaccinia stage, marked with its call; activity change (Venus), %; measured here: Venus reporter, other viral stage;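 negative = less Venus signal; first of two replicates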
Active calls of the source: *; ? = inconclusive; . = not tested or not shown; & = joins results of further samples. These rows are one share of the data; the hit share may differ from the screen's.

SMILES	Vaccinia stage	Vaccinia stage Venus
C[C@@H]1CN([C@H](C)CO)C(=O)c2cc(C3=CCCCC3)cnc2O[C@H]1CN(C)Cc1cccnc1	-1	-3
O=C(C[C@H]1C[C@H]2c3cc(NC(=O)c4ccc5c(c4)OCO5)ccc3O[C@H]2[C@H](CO)O1)NCC1CC1	5	3
COc1ccc(NC(=O)N2[C@@H]3CNC[C@H]2C3c2ccc(-c3ccccc3C)cc2)cc1 (some centres undefined)	2&-2	5&7
CCC(=O)N1CC2(CN(Cc3ccc(OC)cc3)C2)c2c(n(C)c3cc(OC)ccc23)[C@H]1CO	-26	-20
Cc1noc(C)c1NC(=O)N(C)C[C@@H]1Oc2ccc(NC(=O)Nc3ccc(F)cc3)cc2C(=O)N([C@@H](C)CO)C[C@@H]1C	12	15
COCC(=O)Nc1ccc2c(c1)[C@H]1C[C@@H](CC(=O)NCc3ccncc3)O[C@H](CO)[C@H]1O2	-2	-3
CCC(=O)NC[C@H]1[C@H](c2ccc(-c3cccc(F)c3)cc2)[C@@H](CO)N1C(=O)CC	-6	1
CCCNC(=O)N(C)C[C@@H]1Oc2cc(C#CCOC)ccc2S(=O)(=O)N([C@H](C)CO)C[C@H]1C	7	9
Cc1ccc(S(=O)(=O)N2C[C@H](O)COC[C@H]3O[C@H](CC(=O)N[C@@H]4CCN(Cc5ccccc5)C4)CC[C@@H]32)cc1	-26	-19
Cc1noc(C)c1S(=O)(=O)Nc1ccc2c(c1)CC(=O)N([C@@H](C)CO)C[C@H](C)[C@@H](CN(C)C(=O)NC1CCCCC1)O2	15	7
CO[C@H]1CN(C)C(=O)c2cc(NC(=O)NC(C)C)ccc2OC[C@H](C)N(C(=O)NC(C)C)C[C@H]1C	5	4
C[C@H](CO)N1C[C@H](C)[C@H](CN(C)Cc2ccc(C(=O)Nc3ccccc3N)cc2)Oc2c(NS(=O)(=O)c3cn(C)cn3)cccc2C1=O	7	-4
CCCNC(=O)N(C)C[C@H]1Oc2ncc(-c3ccc(F)cc3)cc2C(=O)N([C@@H](C)CO)C[C@H]1C	13	3
CO[C@@H]1CN(C)C(=O)c2ccc(NC(=O)Nc3ccc4c(c3)OCO4)cc2OC[C@@H](C)NC[C@@H]1C	12	13
C[C@H](CO)N1C[C@H](C)[C@H](CN(C)C(=O)NC2CCCCC2)Oc2ccc(NC(=O)Cn3cnnn3)cc2C1=O	4	2
CC(C)NC(=O)N(C)C[C@H]1Oc2ccc(NS(=O)(=O)c3ccccc3)cc2CC(=O)N([C@@H](C)CO)C[C@H]1C	5	7
COc1ccc(S(=O)(=O)N(C)C[C@H]2Oc3ccc(NC(=O)CCC(F)(F)F)cc3C(=O)N([C@H](C)CO)C[C@H]2C)cc1	10	3
C[C@@H]1CN([C@H](C)CO)C(=O)Cc2cc(NC(=O)Nc3ccc(F)cc3)ccc2O[C@H]1CN(C)C(=O)NC1CCCCC1	10	4
COc1ccc(S(=O)(=O)Nc2ccc3c(c2)C(=O)N([C@H](C)CO)C[C@H](C)[C@@H](CN(C)Cc2ccc(Cl)c(Cl)c2)OCCCC[C@@H](C)O3)cc1	?	.
COc1ccc(S(=O)(=O)Nc2ccc3c(c2)C(=O)N([C@H](C)CO)C[C@@H](C)[C@H](CN(C)C(=O)CCC(F)(F)F)OCCCC[C@@H](C)O3)cc1	-16	-16
CN1c2ccc(-c3ccccc3)cc2[C@H]2[C@H](CCN2C(=O)NC2CCCCC2)[C@@H]1CO	?	.
C[C@H]1CN([C@@H](C)CO)C(=O)c2cccc(NC(=O)Nc3ccccc3)c2O[C@H]1CN(C)S(=O)(=O)c1ccccc1	-26	-13
C[C@@H]1CN([C@H](C)CO)S(=O)(=O)c2ccc(C#CC3(O)CCCC3)cc2O[C@@H]1CN(C)C(=O)Cc1ccccc1	-9	-15
COc1ccc(S(=O)(=O)Nc2ccc3c(c2)C(=O)N([C@@H](C)CO)C[C@@H](C)[C@H](CN(C)Cc2ccncc2)O3)cc1	9	-1
CO[C@@H]1CN(C)C(=O)c2ccc(NS(=O)(=O)c3ccc(C)cc3)cc2OC[C@H](C)N(Cc2nccs2)C[C@H]1C	-2	-5

Ten structures already listed, sorted by length of the SMILES, lowest first.
SMILES	Vaccinia stage	Vaccinia stage Venus
CCC(=O)N1CC2(CN(Cc3ccc(OC)cc3)C2)c2c(n(C)c3cc(OC)ccc23)[C@H]1CO	-26	-20
CCCNC(=O)N(C)C[C@@H]1Oc2cc(C#CCOC)ccc2S(=O)(=O)N([C@H](C)CO)C[C@H]1C	7	9
CCCNC(=O)N(C)C[C@H]1Oc2ncc(-c3ccc(F)cc3)cc2C(=O)N([C@@H](C)CO)C[C@H]1C	13	3
CO[C@@H]1CN(C)C(=O)c2ccc(NC(=O)Nc3ccc4c(c3)OCO4)cc2OC[C@@H](C)NC[C@@H]1C	12	13
C[C@H](CO)N1C[C@H](C)[C@H](CN(C)C(=O)NC2CCCCC2)Oc2ccc(NC(=O)Cn3cnnn3)cc2C1=O	4	2
CO[C@@H]1CN(C)C(=O)c2ccc(NS(=O)(=O)c3ccc(C)cc3)cc2OC[C@H](C)N(Cc2nccs2)C[C@H]1C	-2	-5
C[C@@H]1CN([C@H](C)CO)C(=O)Cc2cc(NC(=O)Nc3ccc(F)cc3)ccc2O[C@H]1CN(C)C(=O)NC1CCCCC1	10	4
Cc1noc(C)c1NC(=O)N(C)C[C@@H]1Oc2ccc(NC(=O)Nc3ccc(F)cc3)cc2C(=O)N([C@@H](C)CO)C[C@@H]1C	12	15
Cc1ccc(S(=O)(=O)N2C[C@H](O)COC[C@H]3O[C@H](CC(=O)N[C@@H]4CCN(Cc5ccccc5)C4)CC[C@@H]32)cc1	-26	-19
COc1ccc(S(=O)(=O)Nc2ccc3c(c2)C(=O)N([C@H](C)CO)C[C@H](C)[C@@H](CN(C)Cc2ccc(Cl)c(Cl)c2)OCCCC[C@@H](C)O3)cc1	?	.

(continued)
SMILES	Vaccinia stage	Vaccinia stage Venus
C[C@H](CO)N1C[C@H](C)[C@@H](CN(C)C(=O)Nc2ccc(C(F)(F)F)cc2)Oc2ccc(N(C)C)cc2C1=O	5	2
O=C(C[C@H]1C=C[C@@H](NC(=O)Nc2ccc3c(c2)OCO3)[C@@H](CO)O1)NCc1ccc(F)cc1	4	7
O=C(O)C[C@H]1C[C@H]2c3cc(NC(=O)Nc4ccc(C(F)(F)F)cc4)ccc3O[C@H]2[C@@H](CO)O1	-3	2
C[C@@H]1CN([C@@H](C)CO)S(=O)(=O)c2ccc(-c3cccnc3)cc2O[C@H]1CN(C)Cc1cncnc1	8	-5
N#Cc1ccc(-c2ccc(C3[C@H]4CNC[C@@H]3N4S(=O)(=O)c3ccccc3F)cc2)cc1 (some centres undefined)	3	0
O=C(C1=C[C@H](C2CC2)C[C@H](OCc2ccc(CO)cc2)O1)N1CCOCC1	29	14
COCC#Cc1cnc2c(c1)C(=O)N([C@@H](C)CO)C[C@H](C)[C@H](CN(C)C(=O)C1CCCCC1)O2	-8	-9
CN(C)C(=O)c1cccc(-c2ccc([C@H]3[C@@H](CO)N4CCCCN(Cc5cccnc5)C[C@@H]34)cc2)c1	31	-4
C[C@H]1CN([C@@H](C)CO)S(=O)(=O)c2ccc(-c3ccncc3)cc2O[C@H]1CN(C)C(=O)Nc1ccc(C(F)(F)F)cc1	6	9
C[C@H]1CN([C@@H](C)CO)C(=O)c2cc(C#CC3(O)CCCC3)cnc2O[C@H]1CN(C)S(C)(=O)=O	17	13
C[C@@H]1CN([C@@H](C)CO)C(=O)c2cc(NC(=O)Nc3ccc4c(c3)OCO4)ccc2O[C@H]1CN(C)C	18	5
O=C(C[C@@H]1C[C@@H]2c3cc(NC(=O)Nc4ccccc4)ccc3O[C@@H]2[C@H](CO)O1)NCc1ccncc1	-3	1
COc1ccc(NC(=O)N(C)C[C@@H]2Oc3ncc(/C=C/c4ccccc4)cc3C(=O)N([C@H](C)CO)C[C@@H]2C)cc1	-23	-18
Cc1ccc(S(=O)(=O)N(C)C[C@@H]2Oc3c(NC(=O)NC(C)C)cccc3C(=O)N([C@@H](C)CO)C[C@@H]2C)cc1	-31	-25
C[C@H]1CN([C@@H](C)CO)S(=O)(=O)c2ccc(C#CC3CC3)cc2O[C@H]1CN(C)Cc1ccccc1	?	.
COc1cccc(S(=O)(=O)Nc2ccc3c(c2)[C@@H]2C[C@H](CC(=O)NC4CCCCC4)O[C@@H](CO)[C@@H]2O3)c1	-15	-7
C[C@H](CO)N1C[C@H](C)[C@@H](CN(C)S(=O)(=O)c2ccccc2)Oc2ccc(NC(=O)NC3CCCCC3)cc2C1=O	7	-1
N#Cc1ccc(-c2ccc([C@H]3[C@H](CO)N4C(=O)CN(C(=O)C5CCCC5)C[C@@H]34)cc2)cc1	1	8
C[C@@H]1CCCCO[C@H](CN(C)C(=O)Nc2ccccc2)[C@H](C)CN([C@H](C)CO)C(=O)c2cc(NC(=O)c3ccncc3)ccc2O1	6	4
Cc1noc(C)c1S(=O)(=O)Nc1ccc2c(c1)CC(=O)N([C@@H](C)CO)C[C@@H](C)[C@H](CN(C)Cc1ccncc1)O2	15	9
C[C@@H]1CN([C@@H](C)CO)C(=O)CCCn2cc(nn2)CO[C@H]1CN(C)C(=O)Nc1ccc(-c2cccs2)cc1	-23	-6
CN1CCN(C(=O)C[C@H]2CC[C@@H]3[C@@H](COc4ccc(NC(=O)c5cccs5)cc4C(=O)N3C)O2)CC1	1	5
C[C@H]1CN([C@@H](C)CO)C(=O)c2cc(C#Cc3cccc(F)c3)cnc2O[C@H]1CN(C)C(=O)c1ccccc1F	?	.
O=S(=O)(Cc1ccccc1)N1C[C@@H]2N[C@H](C1)C2c1ccc(-c2ccccc2)cc1 (some centres undefined)	?	.
COc1ccc(NC(=O)Nc2ccc3c(c2)C(=O)N([C@H](C)CO)C[C@H](C)[C@@H](CN(C)Cc2ccc(C(F)(F)F)cc2)O3)cc1	-16	-16
The listing continues.
SMILES	Vaccinia stage	Vaccinia stage Venus
COc1ccc(CNC(=O)C[C@H]2C[C@@H]3c4cc(NC(=O)CN(C)C)ccc4O[C@@H]3[C@H](CO)O2)cc1	4	1
C[C@@H]1CN([C@H](C)CO)C(=O)c2cc(Br)cnc2O[C@H]1CN(C)CC1CCOCC1	10	-4
C[C@@H]1CCCCO[C@H](CN(C)S(=O)(=O)c2ccccc2)[C@@H](C)CN([C@H](C)CO)C(=O)c2cc(NC(=O)c3ccccc3)ccc2O1	10	8
O=C(c1ccc(F)cc1)N1CC(=O)N2[C@H](C1)[C@@H](c1ccc(C#CC3CC3)cc1)[C@@H]2CO	-22	-18
C[C@H](CO)N1C[C@H](C)[C@H](CN(C)Cc2ccc(C(=O)O)cc2)Oc2c(NC(=O)Nc3cccc4ccccc34)cccc2C1=O	6	-3
COc1ccc(NC(=O)N(C)C[C@@H]2Oc3ccc(N(C)C)cc3C(=O)N([C@H](C)CO)C[C@@H]2C)cc1	-2	-11
C[C@H](CO)N1C[C@H](C)[C@H](CN(C)S(=O)(=O)c2cn(C)cn2)Oc2ccc(NC(=O)Nc3ccccc3)cc2C1=O	11	4
CCCNC(=O)N1CC2(CN(C(=O)c3cnccn3)C2)c2c([nH]c3cc(OC)ccc23)[C@@H]1CO	29	18
COc1ccc(NC(=O)N(C)C[C@@H]2OCCCC[C@@H](C)Oc3ccc(NC(=O)Nc4ccc(F)cc4)cc3C(=O)N([C@@H](C)CO)C[C@@H]2C)cc1	10	8
COc1cccc(C#Cc2ccc3c(c2)O[C@@H](CN(C)C(=O)c2ccccn2)[C@@H](C)CN([C@@H](C)CO)S3(=O)=O)c1	-20	-10
C[C@H](CO)N1C[C@H](C)[C@@H](CN(C)CC2CCCCC2)OCCCC[C@H](C)Oc2ccc(NC(=O)c3ccncc3)cc2C1=O	10	3
COc1ccccc1CNC(=O)C[C@@H]1C=C[C@H](NC(=O)CC2CC2)[C@@H](CO)O1	5	9
O=C(c1ccccc1F)N1CC(=O)N2[C@H](CO)[C@@H](c3ccc(C#Cc4ccc(F)cc4)cc3)[C@@H]2C1	?	.
COCC(=O)N(C)C[C@@H]1Oc2cc(Br)ccc2S(=O)(=O)N([C@H](C)CO)C[C@@H]1C	17	8
O=C(C[C@@H]1C=C[C@H](NC(=O)c2ccncc2)[C@H](CO)O1)NCC1CCCCC1	2	1
C[C@H](CO)N1C[C@H](C)[C@H](CN(C)Cc2ccc3c(c2)OCO3)Oc2ccc(NC(=O)c3ccncc3)cc2C1=O	8	3
CCCN(C)C[C@H]1Oc2cc(-c3ccc(C)cc3)ccc2S(=O)(=O)N([C@@H](C)CO)C[C@H]1C	-13	-24
CC(C)NC(=O)Nc1ccc2c(c1)CC(=O)N([C@@H](C)CO)C[C@H](C)[C@@H](CN(C)S(=O)(=O)c1ccccc1)O2	8	-3
C[C@@H]1CN([C@H](C)CO)S(=O)(=O)c2ccc(-c3cccnc3)cc2O[C@@H]1CN(C)C	3	-1
CCC(=O)N1CC2(C1)[C@@H](c1ccccc1)[C@@H](CO)N2S(=O)(=O)Cc1ccccc1	3	0
COc1ccc(S(=O)(=O)Nc2ccc3c(c2)C(=O)N([C@H](C)CO)C[C@H](C)[C@@H](CN(C)CC2CC2)O3)cc1	12	9
C[C@@H]1CCCCO[C@@H](CN(C)C(=O)c2ccncc2)[C@H](C)CN([C@H](C)CO)C(=O)c2cc(NS(=O)(=O)c3cccs3)ccc2O1	18	4
C[C@H]1CN([C@@H](C)CO)C(=O)c2cccc(NS(=O)(=O)c3ccccc3)c2O[C@@H]1CN(C)S(=O)(=O)c1cccs1	3	0
CO[C@H]1CN(C)C(=O)c2ccc(NC(=O)c3ccccc3)cc2OC[C@@H](C)N(C(C)=O)C[C@H]1C	9	-5
COCCNC(=O)c1cc2c(c(-c3cccc(-c4cccc(OC)c4)c3)n1)[C@@H](CCO)N(S(=O)C(C)(C)C)C2 (some centres undefined)	?	.
C[C@@H]1CN([C@@H](C)CO)C(=O)Cc2cc(NC(=O)Nc3ccc4c(c3)OCO4)ccc2O[C@H]1CN(C)CC1CC1	3	1
C[C@@H]1CN([C@@H](C)CO)S(=O)(=O)c2ccc(C#CCN(C)C)cc2O[C@H]1CN(C)S(=O)(=O)c1cccc(F)c1	-14	0
CCC(=O)N1[C@H](CO)[C@H](c2ccc(-c3cccnc3)cc2)[C@H]1CN(CC)C(C)=O	1	18
